RecA intein inh – Mtb RecA intein splicing inhibition. P9WHJ3. cell-free RecA intein splicing, fluorescence. inhibition, %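 (about 9 µM by stock and volumes)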. 0.75% of 290,000 active. AID 2221; in the data active = inhibition above about 30%; inconclusive = no clear call, values can overlap the other calls;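 note: 0% = vehicle wells and 100% = reference inhibitor control wells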
Target sequence (P9WHJ3 whole entry, looked up): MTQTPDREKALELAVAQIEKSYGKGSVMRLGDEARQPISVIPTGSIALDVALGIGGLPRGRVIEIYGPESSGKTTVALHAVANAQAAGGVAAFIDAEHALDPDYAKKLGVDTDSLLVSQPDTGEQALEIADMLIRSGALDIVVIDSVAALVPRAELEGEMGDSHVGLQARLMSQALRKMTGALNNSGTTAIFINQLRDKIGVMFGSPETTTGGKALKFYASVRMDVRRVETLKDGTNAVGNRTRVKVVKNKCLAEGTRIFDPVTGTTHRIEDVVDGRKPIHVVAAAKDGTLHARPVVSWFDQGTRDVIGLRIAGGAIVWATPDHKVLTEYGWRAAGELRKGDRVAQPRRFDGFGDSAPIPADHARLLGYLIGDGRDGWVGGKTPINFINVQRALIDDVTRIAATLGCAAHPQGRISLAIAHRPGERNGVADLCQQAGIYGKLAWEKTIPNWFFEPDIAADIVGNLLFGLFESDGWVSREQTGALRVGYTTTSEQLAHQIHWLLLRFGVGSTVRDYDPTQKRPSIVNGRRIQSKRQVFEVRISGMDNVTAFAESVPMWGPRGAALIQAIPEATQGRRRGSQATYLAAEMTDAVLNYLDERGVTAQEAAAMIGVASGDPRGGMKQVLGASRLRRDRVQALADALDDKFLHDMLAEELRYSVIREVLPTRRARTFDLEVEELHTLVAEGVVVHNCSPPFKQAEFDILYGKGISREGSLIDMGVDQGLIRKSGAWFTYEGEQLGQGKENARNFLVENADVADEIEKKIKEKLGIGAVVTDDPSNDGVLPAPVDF
YopH inh – blocks Yersinia enterocolitica YopH tyrosine phosphatase. fluorescence Ex485/Em525. inhibition, %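 (about 10 µM by stock and volumes)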. 0.16% of 140,000 active. AID 898;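 active = inhibition of 50% or more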;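 note: controls were vehicle for no effect and minimum signal wells for full effect; inactives centre near -20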
Mtb betalactam – beta-lactam sensitization of Mtb H37Rv | 0.27% of 330,000 active | M. tuberculosis H37Rv growth with meropenem, percent inhibition; hits of this screen are not shown here | AID 434955 | inhibition, % at 25 µM;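 active = about 74% or more and at least 40 points above the plate without the antibiotic, then above 30% in a dose series; inconclusive = first-round hits that could not be retested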;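 note: growth measured after seven days incubation then overnight dye step; 0% = bacteria only wells and 100% = bacteria with antibiotic; twin plates without the antibiotic show which effects depend on it; some results filed as inactive read as strong as hits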
Mtb growth – M. tuberculosis H37Rv growth inhibitors, H37Rv strain (AID 1626); 0.95% of 220,000 active; one-dose inhibition, % at 10 µM; IC50 in µM for titrated hits; M. tuberculosis H37Rv growth inhibition; higher % means a stronger effect;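 active = confirmed in a dose series; inconclusive = inhibition above 80% but not taken into the dose series; inactive = below 80% or under 30% at every dose of the series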;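 note: bacteria incubated seven days before Alamar blue readout; 0% = bacteria only wells and 100% = bacteria with antibiotic wells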
Arbovirus anti – antivirals against arbovirus infection | inhibition, % at 10 µM | 0.37% of 200,000 active | arbovirus infection cell-based antiviral screen | AID 1251;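 active = inhibition from about 30%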;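 note: bluetongue infection of BSR cells; cell survival read as ATP light after 72 h; 0% = infected wells without compound and 100% = uninfected wells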
Arbovirus anti repeat – recorded beside Arbovirus anti, whose call it bears; inhibition, %; measured here: 10K subset replicate screen; many hits read low in the repeat;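 first of two repeat runs on a subset; 0% = infected and 100% = uninfected wells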
* = called active by the depositor; ? = inconclusive; nt = no result given.

SMILES	RecA intein inh	YopH inh	Mtb betalactam	Mtb growth	Arbovirus anti	others
Cc1ccc(NC(=O)c2sc3ccccc3c2Cl)nc1	nt	-35	1	11%	-1
O=S(=O)(NC1CCCCCCC1)c1ccc(F)cc1	-0.5	nt	-3	nt	nt
COc1ccc(C)cc1NC(=O)C1CCCN(S(=O)(=O)c2cccnc2)C1 (centres undefined)	0.9	nt	2	nt	nt
CC(Oc1ccccc1)C(=O)NNC(=O)c1cccs1 (centres undefined)	-1.1	nt	2	-5%	2
O=C(CSc1nnc(-c2ccc3c(c2)OCO3)o1)Nc1ncc(Cl)cc1Cl	-2.4	-22	84	78%	-19
CC(CNC(=O)CCn1c(=O)c2cccn2c2ccc(F)cc21)c1ccccc1 (centres undefined)	3.3	nt	-16	nt	nt
O=C(COC(=O)CCCOc1ccc(Cl)cc1Cl)NCc1ccc(F)cc1	0.8	-14	1	-5%	-8
COCCNC(=O)CCCn1c(=O)c2cc(OC)c(OC)cc2n(CC(=O)Nc2ccccc2OC)c1=O	0.0	nt	5	-5%	16
O=S(=O)(Nc1ccc(Cl)c(Cl)c1)N1CCOCC1	3.1	nt	-3	nt	nt
O=C(N/N=C/c1ccccc1C(=O)O)C(=O)N1CCCCC1	-2.2	nt	1	0%	27
Cc1ccc(SCc2nn(C)c(Cl)c2C=O)cc1	2.2	nt	6	4%	-2
NC(=O)c1ccsc1NC(=O)COC(=O)CSc1ccc(Cl)cc1	6.8	nt	-2	1%	2

The final 4 compounds of the part before lead into the next.
SMILES	RecA intein inh	YopH inh	Mtb betalactam	Mtb growth	Arbovirus anti	others
O=S(=O)(Nc1ccc(Cl)c(Cl)c1)N1CCOCC1	3.1	nt	-3	nt	nt
O=C(N/N=C/c1ccccc1C(=O)O)C(=O)N1CCCCC1	-2.2	nt	1	0%	27
Cc1ccc(SCc2nn(C)c(Cl)c2C=O)cc1	2.2	nt	6	4%	-2
NC(=O)c1ccsc1NC(=O)COC(=O)CSc1ccc(Cl)cc1	6.8	nt	-2	1%	2
Cc1ccc(NS(=O)(=O)c2cc3c(cc2C)NC(=O)CO3)cc1	4.1	nt	1	nt	nt
COc1ccc(CN(CC(=O)NCc2ccc(F)cc2)C(=O)c2ccco2)cc1	-4.2	nt	-4	nt	nt
CCOc1ccccc1Nc1ncccc1C(=O)O	2.6	-46	1	-7%	7
O=C(CSc1nc(-c2ccccc2Cl)ns1)Nc1ccc2c(c1)OCO2	2.1	-27	64	99%	-10
CC(O)c1ccc2c(c1)OCCOCCN(C)CCOCCO2 (centres undefined)	-1.0	-29	-9	-1%	-1
CCOC(=O)n1n[n+]([O-])c2ccccc21	11	-23	-3	-2%	3
NC(=O)c1cc(-c2ccccc2)nc2ccc(Br)cc12	-1.3	nt	0	-2%	nt
O=C(COC(=O)Cn1cnc2ccccc2c1=O)NCc1ccccc1Cl	-2.3	nt	3	0%	-1
Cc1cccc(C)c1NC(=S)N(Cc1ccccc1)Cc1cccs1	13	nt	-4	7%	3
O=C(CSc1cccc[n+]1[O-])Nc1ccccc1Oc1ccccc1	-2.0	nt	100	?	2
COc1ccc2nc3sc(C(=O)N4CCN(C)CC4)cc3cc2c1	-3.5	-24	-1	nt	9
CCc1ccc(CN(C)C(=O)c2cc(COc3c(F)cccc3F)on2)cc1	1.1	nt	-3	5%	5
CC1CCN(S(=O)(=O)c2ccc3c(c2)N(CC(=O)NCc2cccnc2)C(=O)CS3)CC1	nt	-13	-1	8%	4
CC1CC(C)CN(C(=O)Cn2c(=O)c3cccn3c3cccnc32)C1 (centres undefined)	-0.3	nt	3	nt	nt
O=C(NC(=S)N(CCCCO)C1CCCCC1)c1sc2ccccc2c1Cl	5.9	4	6	2%	-30
C#CCNC(=O)C1=C[C@H](c2cn(C(C)=O)c3ccccc23)[C@@H](CCCO)[C@H](OCC)O1	-3.5	nt	-2	-13%	5
Cc1cccc(NC2=C(Cl)C(=O)OC2NC(=O)c2ccccc2)c1 (centres undefined)	1.9	-7	6	-6%	11
O=C(O)/C=C/C(=O)OC1CC2CCC1C2 (centres undefined)	1.0	nt	-2	1%	nt
CC1CN(C(=O)c2ccccc2)c2ccccc2NC1=O (centres undefined)	-0.9	2	7	-3%	1
CC(C)OC(=O)c1nnc(-c2ccccc2)nc1OC(C)C	3.7	-30	-5	6%	-13
Cc1cc2c(=O)n(C)c(SCC(=O)c3cc4ccccc4o3)nc2s1	-0.3	-17	-3	-3%	10
CSc1ccccc1NC(=O)CN1CC(C)OC(C)C1 (centres undefined)	1.8	nt	-4	2%	0
CCOC(=O)c1cnc2[nH]c3ccccc3n2c1=O	1.3	nt	12	-8%	-6
Cn1cnnc1Sc1cc(N2CCN(S(=O)(=O)c3ccc(Cl)c(Cl)c3)CC2)ccc1[N+](=O)[O-]	-3.8	-1	-8	2%	-5

Looked up one by one from the list above:
SMILES	RecA intein inh	YopH inh	Mtb betalactam	Mtb growth	Arbovirus anti	others
O=C(O)/C=C/C(=O)OC1CC2CCC1C2 (centres undefined)	1.0	nt	-2	1%	nt
CC1CC(C)CN(C(=O)Cn2c(=O)c3cccn3c3cccnc32)C1 (centres undefined)	-0.3	nt	3	nt	nt

Carrying on:
SMILES	RecA intein inh	YopH inh	Mtb betalactam	Mtb growth	Arbovirus anti	others
CN1CCN(c2ccccc2NC(=O)Cc2cn(C)c3ccccc23)CC1	-5.9	-31	2	2%	8	Arbovirus anti repeat=11
CC1(C)Cc2c(sc3[nH]c(=O)n(CC(=O)NCC4CCCO4)c(=O)c23)CO1 (centres undefined)	-1.7	nt	-5	nt	nt
CCN(CC)S(=O)(=O)c1cc(NC(=O)CNc2c(C)n(C)n(-c3ccccc3)c2=O)ccc1C	-1.0	nt	-1	3%	-1
COc1cc(CN2C(=O)NC(=O)C3(Cc4cc(C)ccc4N(C)C3)C2=O)cc(OC)c1 (centres undefined)	-2.0	-28	-4	-8%	2
O=C(COC(=O)Cc1cn2ccsc2n1)NCc1ccc2c(c1)OCO2	6.2	-23	-3	-8%	0
Cc1ccc(/C=N/NC(=O)c2cccnc2)o1	-2.7	nt	-5	-4%	4
COCCN1CCn2c(nc3cc([N+](=O)[O-])ccc32)C1	-1.7	nt	4	-4%	nt
O=C(NCCCn1ccnc1)c1noc2c1CCCC2	-5.4	-34	-1	-6%	3
CCCCN1C(=O)Cc2c1nc(N)c1c(N)nc(N(CCC)CCC)c(C#N)c21	nt	-24	-7	nt	-2
CC(=O)Oc1ccc(N2C(=O)[C@@H]3[C@H](C2=O)[C@H]2c4ccccc4C=NN2[C@@H]3C(C)=O)cc1	nt	nt	6	-18%	nt
O=C(NCCCN1CCOCC1)C(C(=O)c1ccccc1)n1ccccc1=O (centres undefined)	nt	-32	-20	3%	0
C=CCn1c(O)c(N=NC(=O)CNC(=O)c2ccco2)c2ccccc21	7.1	-18	1	-3%	-17
Cc1ccc(Sc2nnc(Cc3ccccc3)c3ccccc23)cc1	nt	3	?	13%	-8
Cn1cccc1C(=O)NC(=O)CSc1nc2ccccc2s1	0.8	-44	-4	-5%	4
Cc1ccc(C(=O)c2cc(C)sc2N)cc1	-0.3	nt	10	1%	-7
COc1cc(C2OC(c3cc(OC)c(OC)c(OC)c3)C(C)C2C)cc(OC)c1OC (centres undefined)	5.8	nt	2	7%	-1
Cc1ccc(NC(=O)C(=O)NCc2ccc(/C=N/NC(=O)c3c(C)nc4cc(C)ccn34)o2)cc1	5.8	-20	7	8%	-22
CSc1ccc(C2CC(=O)Nc3nc(SC)[nH]c(=O)c32)cc1 (centres undefined)	0.0	nt	-1	-4%	26
Cc1ccc(S(=O)(=O)NCC2NCCc3ccccc32)cc1 (centres undefined)	15	nt	0	5%	7
Cc1ccc(CNC(=O)Nc2cccs2)cc1	-1.0	-17	-11	11%	-1
CCC(C)(C)n1nnnc1C(c1ccc(O)c(OC)c1)N1CCN(c2nc3ccccc3s2)CC1 (centres undefined)	6.7	-28	8	6%	-5
O=C(COC(=O)c1n[nH]c(=O)c2ccccc12)c1ccccc1	-5.8	-13	0	4%	0
C=CCN1C(=NC(=O)CCC(=O)O)SC2CS(=O)(=O)CC21 (centres undefined)	-0.5	-35	-12	-6%	8
O=C(C[n+]1cc(Br)cc2ccccc21)c1ccccc1	3.5	nt	75	nt	nt
FC(F)Oc1ccc(/C=N/N2CCCCC2)c(OC(F)F)c1	-2.8	nt	2	-4%	-3
Cc1ccc(-c2cc(C(=O)Nc3nccs3)c3ccccc3n2)o1	8.5	-34	16	13%	10
CCc1ccc(NC(=O)C2(C)Cc3ccccc3C(=O)O2)cc1 (centres undefined)	nt	nt	8	8%	-3
CCCC(=O)N/C(N)=N/c1nc(C)c2ccccc2n1	-2.8	nt	1	2%	nt
O=C1CCN(Cc2nc(-c3ccc(Cl)cc3)no2)CCN1	-1.7	nt	-1	-1%	0
Cc1cc(C(=O)COC(=O)c2ccc[nH]c2=O)c(C)n1C1CC1	2.5	-25	-4	-6%	3
CCc1ccc(N2CC(C(=O)Nc3ccc(S(=O)(=O)Nc4nccs4)cc3)CC2=O)cc1 (centres undefined)	-1.5	nt	-5	nt	nt
Nc1c(NCc2ccccc2)c(=O)c1=O	1.1	nt	1	-3%	nt
O=c1c2cc([N+](=O)[O-])ccc2nc2n1CCC2	-0.8	nt	-2	nt	nt
CCn1ccnc1CN(C)C(=O)CC1C(=O)NCCN1Cc1c(F)cccc1Cl (centres undefined)	-1.3	nt	4	6%	2
CCN(CCn1cccn1)C(=O)CCc1nnc(CCc2ccccc2OC)o1	-1.6	nt	-1	-3%	4
Cc1ccc(OCc2nc(-c3ccccn3)no2)c(Br)c1	3.7	-9	-7	-2%	-12	Arbovirus anti repeat=-12
COc1ccccc1NC1=C(Cl)C(=O)OC1OC(=O)c1ccco1 (centres undefined)	41*	nt	-7	1%	-1
COc1cccc(CCNCc2c(F)cccc2F)c1	-0.3	nt	0	-1%	4
CNC(=O)CN(c1ccc(C23CC4CC(CC(C4)C2)C3)cc1)S(C)(=O)=O	0.1	nt	-2	1%	8
CN(Cc1ccccc1)C(=O)CCCn1c(=O)c2cccn2c2cccnc21	-0.2	nt	-4	nt	nt
COc1ccc(NC(=O)CSc2nnc(CC(=O)Nc3ccc(F)cc3)n2C)cc1	2.0	nt	-1	nt	nt
Cc1c(-c2nc(N)nc(Nc3ccc(F)cc3)n2)oc2ccccc12	1.2	31	13	16%	3
Cc1ccc(NC(=O)CSc2cccc[n+]2[O-])c([N+](=O)[O-])c1	-3.9	nt	-2	0%	8
CCCCCCCNC1=CC(=O)CC(c2ccco2)C1 (centres undefined)	1.8	3	-2	3%	7
COc1ccc(CNS(=O)(=O)c2c(C)[nH]c(C)c2C(=O)N2CCCCC2)cc1	-1.0	nt	-1	nt	nt
O=C(Nc1ccccn1)Nc1ccccc1[N+](=O)[O-]	0.6	nt	3	nt	nt
CN=C1c2cc3cc(OC)ccc3n2CCN1C	2.1	-20	-23	-6%	1
COc1cccc(/C=C2\SC(=S)N(CCCC(=O)N3CCCCC3CCO)C2=O)c1 (centres undefined)	0.3	nt	2	nt	nt
Cc1ccc(-c2[nH]ncc2/C=C(\C#N)C(=O)NC2CCCCC2)cc1	2.9	-26	31	-1%	-2
O=C(NCCCN1CCOCC1)C1CC(=O)N(CCc2ccccc2)C1 (centres undefined)	-0.8	38	-6	-8%	3
Cc1ccc(NC(=O)C2CCCN(S(=O)(=O)c3cnc[nH]3)C2)cc1F (centres undefined)	nt	7	0	-13%	8
COc1ccccc1N(CC(=O)NCCc1ccccc1)S(C)(=O)=O	0.2	-33	-5	-2%	0
CC(C)(C)n1nnnc1C(c1ccc(Cl)cc1)N1CCSCC1 (centres undefined)	-1.3	-11	-11	-6%	-2
CC(C)C(=O)N(Cc1ccccc1)S(=O)(=O)c1ccc2c(c1)oc(=O)n2C	-0.3	nt	1	nt	nt
COc1ccccc1N1C(=N)S/C(=C\c2ccc(-c3ccccc3C(=O)O)o2)C1=O	-8.0	-15	-7	-2%	5
CCOC(=O)CSc1nc(-c2ccc(OC)cc2)ns1	4.0	-25	99	57%	3
O=C(c1cc2nc(-c3ccco3)cc(C(F)(F)F)n2n1)N1CCN(Cc2ccccc2)CC1	-3.4	-8	14	9%	-8
O=[N+]([O-])c1ccccc1S(=O)(=O)NCc1ccc(F)cc1	0.2	nt	-7	-6%	0
O=C(COc1ccccc1F)N1c2ccccc2CCc2ccccc21	2.6	-2	-3	11%	15
O=C(O)c1ccc(Cl)c(S(=O)(=O)Nc2ccccc2N2CCOCC2)c1	0.8	nt	-4	-1%	4
O=C1N(Cc2cccnc2)C[C@@H]2C[C@@H](c3ccccc3C#Cc3ccccc3)N3CCC[C@@]123	5.9	nt	-7	10%	6

Screening results from PubChem BioAssay.

Not all compounds are listed (hit frequency here may not be typical).
